NS1 inh – influenza NS1 inhibition | S. cerevisiae slowed by influenza A NS1, growth recovery by OD600 | actives 0.4% (n = 270,000) | Potency, µM (titrated, usually from 46.1 µM), for inactives: at the top dose activity, positive = more growth; further: actives are rising curves; nearly all actives have a fitted effect of over 50% in size
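OD600 was taken as the measure of yeast growth restored by compound in an NS1-expressing S. cerevisiae strain. Cells had been washed out of glucose medium and diluted 1:100 into galactose -URA medium, pH 6.0.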
Cruzain noTriton – blocks cruzain activity in detergent-free assay; P25779; purified cruzain, Z-FR-AMC fluorescence, no detergent; Potency, µM, for the others: max response, negative = inhibition, hits mostly inhibitors; actives 2.3% (n = 200,000); AID 1476; active means well fitted curve in the direction sought with a large enough effect; inconclusive means small, poorly fitted or top-dose-only effect, or another doubt; inactive means no such curve, though single readings can be large; an effect the other way counts as inactive or inconclusive;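 further: plate controls were enzyme without inhibitor for no effect and buffer without enzyme for full effect; nearly all actives have a fitted effect of over 40% in size; top concentration of the series not given in the record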
Target sequence (P25779 123-467 limits assumed): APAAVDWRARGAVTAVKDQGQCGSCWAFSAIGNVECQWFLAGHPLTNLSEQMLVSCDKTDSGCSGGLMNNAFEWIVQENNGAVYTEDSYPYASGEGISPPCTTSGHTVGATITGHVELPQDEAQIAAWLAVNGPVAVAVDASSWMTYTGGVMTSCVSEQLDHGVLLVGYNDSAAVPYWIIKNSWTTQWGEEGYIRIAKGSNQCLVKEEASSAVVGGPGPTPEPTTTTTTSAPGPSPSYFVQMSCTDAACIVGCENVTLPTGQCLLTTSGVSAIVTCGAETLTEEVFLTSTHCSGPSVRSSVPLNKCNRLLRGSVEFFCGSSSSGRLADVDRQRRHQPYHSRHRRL
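Detergent-free condition (0.00005% Triton X-100) in acetate buffer pH 5.5 with DTT. 1.5 nM enzyme and compound were pre-mixed 15 min, then 2 uM Z-FR-AMC substrate added; reaction progress from fluorescence change between first and third reads (60 s).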
LASV entry inh – Lassa virus entry inhibition; Lassa virus pseudotype entry inhibition, cell reporter; control for the full effect not named in the record; Potency, µM (top dose mostly 37.9 µM), inactives show at the highest dose activity change, negative = inhibition, most hits filed as inhibitors; actives 1.2% (n = 300,000); active means well fitted inhibition curve with a large enough effect; inconclusive means small, poorly fitted or top-dose-only effect, or effect the other way; inactive means flat fitted curve, though single readings scatter; tested in HEK293 cells; further: on the % scale 0 is the no-effect control and ±100 the full control effect; nearly all actives have a fitted effect of over 50% in size; luciferase read-out
MARV entry inh – blocks Marburg virus binding to or entry into cells | actives 1.8% (n = 300,000) | Marburg virus pseudotyped entry inhibition, cell reporter; control for the full effect not named in the record; about a third of the inactives were read at about 46 µM | Potency, µM (highest dose often 37.8 µM), without a hit: top-dose activity change, negative = inhibition, actives largely listed as inhibitors; active = well fitted inhibition curve with a large enough effect; inconclusive = small, poorly fitted or top-dose-only effect, or effect the other way; inactive = flat fitted curve, though single readings scatter; tested in HEK293 cells; about a fifth of its hits are not listed in these tables; further: on the % scale 0 is the no-effect control and ±100 the full control effect; luciferase read-out
SARS PLP yeast – blocks SARS-CoV papain-like protease in a yeast assay; S. cerevisiae expressing SARS-CoV PLpro, growth rescue; control for the full effect not named in the record; Potency, µM (titrated, usually from 32.9 µM), for the others: at the top dose activity, positive = growth rescue; actives 0.19% (n = 330,000); AID 485353; further: 0% is about no effect; nearly all actives have a fitted effect of over 55% in size; growth read by luminescence after 48 h
Cruzain inh Det – inhibitors of Trypanosoma cruzi cruzain with detergent | Potency, µM, for inactives: max response, negative = inhibition, hits mostly inhibitors | purified cruzain, Z-FR-AMC fluorescence, 0.01% Triton | P25779 | actives 0.43% (n = 200,000); active means well fitted curve in the direction sought with a large enough effect; inconclusive means small, poorly fitted or top-dose-only effect, or another doubt; inactive means no such curve, though single readings can be large; an effect the other way counts as inactive or inconclusive;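 further: plate controls were neutral wells for no effect and buffer without enzyme for full effect; nearly all actives have a fitted effect of over 40% in size; top concentration of the series not given in the record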
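Z-FR-AMC hydrolysis (2 uM substrate) by cruzain (1.5 nM) monitored kinetically at ex 360/em 450 nm after 15 min room-temperature compound exposure; 0.01% Triton X-100, pH 5.5, 5 mM DTT.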
RE007 growth inh – less growth of the S. pombe RE007 Vpr strain; actives 0.21% (n = 360,000); S. pombe RE007 Vpr strain, BacTiter-Glo ATP luminescence, 24 h; control for the full effect not named in the record; Potency, µM (highest dose often 92.2 µM), inactives show top-dose activity change, negative = less growth; active = well fitted falling curve with a large enough effect; inconclusive = small, poorly fitted or top-dose-only effect; inactive = no such curve, though single readings can be large or run the other way;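 further: on the % scale 0 is the no-effect control and ±100 the full control effect; nearly all actives have a fitted effect of over 50% in size; the assay follows cell death caused by Vpr and the record does not say whether a fall means rescue or toxicity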
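Fission yeast strain RE007, carrying one chromosomally integrated HIV-1 vpr copy, was seeded at OD 0.01 in PMG+AL medium with 23 nL pinned compound. After 24 h at 30 °C and 99% humidity, viability was read by BacTiter-Glo luminescence.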
2A StopGo – FMDV 2A StopGo reporter, luciferase signal; human cells with a luciferase reporter of 2A StopGo recoding; control for the full effect not named in the record; Potency, µM (titrated, usually from 57.9 µM), for inactives: top-dose signal change, negative = less light; actives 1.2% (n = 410,000); active = well fitted falling curve with a large enough effect; inconclusive = small, poorly fitted or top-dose-only effect; inactive = no such curve, though single readings can be large or run the other way; tested in HEK293T cells; further: on the % scale 0 is the no-effect control and ±100 the full control effect; nearly all actives have a fitted effect of over 45% in size; luciferase light after 4 h
The depositor's hits bear a star; u = inconclusive; x = not tested or not shown; & = joins results of further samples; [ ] = remark or other dose. Unless noted, the call rests on the fitted dose curve; in most records, active means well fitted rising curve with a large enough effect; inconclusive means small, poorly fitted or top-dose-only effect; inactive means no such curve, though single readings can be large or run the other way. Potency means the concentration at half of the fitted maximal effect.

SMILES	NS1 inh	Cruzain noTriton	LASV entry inh	MARV entry inh	SARS PLP yeast	Cruzain inh Det	RE007 growth inh	2A StopGo
CCOc1ccc(CCNC(=O)COC(=O)/C=C/c2ccccc2)cc1OCC	x	x	11%	-15%	-9%	x	-17%	-18%
O=S(=O)(NCCOCC(F)(F)F)c1ccc2oc3ccccc3c2c1	-35%	5%	-6%	u	-22%	-5.0%	4%	0%
COC(=O)c1ccc(COc2ccc(/C=C/C(=O)c3ccc(OC)c(CSCC(=O)O)c3)cc2OC)cc1	u	x	x	x	12%	x	-11%	u
O=C(CN1CCCCCC1)Nc1ccc(Br)cn1	u	x	x	x	6%	x	-13%	9%
COc1ccccc1OCCC(=O)OCC(=O)Nc1ncc(Cl)cc1Cl	-15%	-5%	0%	u	1%	-4.5%	-12%	-18%
c1ccc(-n2nnnc2Oc2ccc(-c3nnco3)cc2)cc1	-14%	3%	-22%	0%	-1%	-2.4%	8%	-19%
Cc1ccccc1C(=O)NC(=S)NCC1CCCO1 (stereo unspecified)	-1%	11%	1%	-14%	10%	0.3%	-13%	12%
COC(=O)[C@H]1C[C@@H]1[C@H](NC(=O)c1cnccn1)c1ccccc1	-2%	-6%&-2%	-11%	0%	9%	-0.9%&3.6%	-14%	-22%
CCN(CC)C(=O)/C(=C/c1cn(S(=O)(=O)N(C)C)c2ccccc12)NC(=O)c1ccc(OC)cc1	x	x	-19%	u	-2%	x	-6%	35%[activator]
CC(OC(=O)CCc1nc2ccccc2c(=O)[nH]1)C(=O)Nc1ccc2c(c1)OCO2 (stereo unspecified)	6%	x	x	x	0%	x	-6%	-14%
O=C(Nc1nnc(SCC(=O)N2CCCc3ccccc32)s1)c1ccccc1	3%	-15%	u	u	-6%	-4.8%	-22%	-20%
O=C(NC1CCC(NC(=O)C2CCCO2)CC1)C1CCCO1 (stereo unspecified)	-1%	-2%	x	2%	1%	1.5%	x	x
COc1ccc(CCC(=O)Nc2sc(C(=O)N(C)C)c(C)c2C#N)cc1	1%	x	0%	13%	-3%	x	1%	-5%
Cc1sc2nc(SCC(=O)NCc3ccco3)n(Cc3ccccc3)c(=O)c2c1C	2%	4%	-6%	-1%	6%	-3.3%	-1%	-14%
Cc1cc(NC(=O)Cn2cnc3sc(C)c(C)c3c2=O)no1	x	x	24%	u	2%	x	2%	2%
CCOC(=O)C1CCCN(C(=O)CCCn2c(=O)c3cccn3c3cccnc32)C1 (stereo unspecified)	-4%	x	x	x	3%	x	8%	-22%
COc1ccc(N2CC(C(=O)Nc3ccccc3C(=O)NCc3ccco3)CC2=O)cc1 (stereo unspecified)	-4%	-2%	-2%	-14%&-14%	1%	-1.1%	14%	-3%
COc1ccccc1COC(=O)c1cccc(S(=O)(=O)N2CCCC2)c1	x	x	u	u	-5%	x	6%	26%
Cc1cc(=O)oc(C)c1C(=O)NCCC1=CCCCC1	4%	8%	0%	16%	2%	4.6%	-2%	-10%
COc1ccc(OCC(=O)N2CCN(C(=O)c3cccc(OC)c3)CC2)cc1	x	5%	u	9%[46.1 µM]	x	1.4%	x	-10%
CCC/C(O)=C1\C(=O)CC(c2ccccc2)CC1=NCCc1c(C)[nH]c2ccccc12 (stereo unspecified)	20%	-12%	1%	-17%	-12%	-2.4%	-11%	-8%
CC(C)(C)OC(=O)c1c(N)n(CCCN2CCCC2=O)c2nc3ccccc3nc12	2%	u	u	5%[46.1 µM]	0%	-11%	1%	-9%
Cc1cc(=O)[nH]c(SCc2cccc(Br)c2)n1	-17%	4%	4%	12%	-10%	3.6%	-17%	-12%
Cc1cccc(C(=O)NCC(c2cccs2)N2CCOCC2)c1 (stereo unspecified)	x	x	-2%	-7%	1%	x	0%	8%

Exported as comma-separated lines: part of the list above
structure,NS1 inh,Cruzain noTriton,LASV entry inh,MARV entry inh,SARS PLP yeast,Cruzain inh Det,RE007 growth inh,2A StopGo
O=C(NC1CCC(NC(=O)C2CCCO2)CC1)C1CCCO1 (stereo unspecified),-1%,-2%,x,2%,1%,1.5%,x,x
COc1ccc(CCC(=O)Nc2sc(C(=O)N(C)C)c(C)c2C#N)cc1,1%,x,0%,13%,-3%,x,1%,-5%
Cc1sc2nc(SCC(=O)NCc3ccco3)n(Cc3ccccc3)c(=O)c2c1C,2%,4%,-6%,-1%,6%,-3.3%,-1%,-14%
Cc1cc(NC(=O)Cn2cnc3sc(C)c(C)c3c2=O)no1,x,x,24%,u,2%,x,2%,2%
CCOC(=O)C1CCCN(C(=O)CCCn2c(=O)c3cccn3c3cccnc32)C1 (stereo unspecified),-4%,x,x,x,3%,x,8%,-22%
COc1ccc(N2CC(C(=O)Nc3ccccc3C(=O)NCc3ccco3)CC2=O)cc1 (stereo unspecified),-4%,-2%,-2%,-14%&-14%,1%,-1.1%,14%,-3%
COc1ccccc1COC(=O)c1cccc(S(=O)(=O)N2CCCC2)c1,x,x,u,u,-5%,x,6%,26%
Cc1cc(=O)oc(C)c1C(=O)NCCC1=CCCCC1,4%,8%,0%,16%,2%,4.6%,-2%,-10%
COc1ccc(OCC(=O)N2CCN(C(=O)c3cccc(OC)c3)CC2)cc1,x,5%,u,9%[46.1 µM],x,1.4%,x,-10%
CCC/C(O)=C1\C(=O)CC(c2ccccc2)CC1=NCCc1c(C)[nH]c2ccccc12 (stereo unspecified),20%,-12%,1%,-17%,-12%,-2.4%,-11%,-8%
CC(C)(C)OC(=O)c1c(N)n(CCCN2CCCC2=O)c2nc3ccccc3nc12,2%,u,u,5%[46.1 µM],0%,-11%,1%,-9%
Cc1cc(=O)[nH]c(SCc2cccc(Br)c2)n1,-17%,4%,4%,12%,-10%,3.6%,-17%,-12%
Cc1cccc(C(=O)NCC(c2cccs2)N2CCOCC2)c1 (stereo unspecified),x,x,-2%,-7%,1%,x,0%,8%

(more compounds)
SMILES	NS1 inh	Cruzain noTriton	LASV entry inh	MARV entry inh	SARS PLP yeast	Cruzain inh Det	RE007 growth inh	2A StopGo
Cc1ccc(NC(=O)C(CC(C)C)NS(=O)(=O)c2ccc3c(c2)oc(=O)n3C)c(C)c1 (stereo unspecified)	x	-5%	-3%[46.1 µM]	4%[46.1 µM]	x	0.2%	x	-6%
COc1cc2c(cc1OC)C(COc1ccc([N+](=O)[O-])cc1)N(C(C)=O)CC2 (stereo unspecified)	0%	x	x	x	-3%	x	-18%	u
O=S(=O)(/N=C(\Nc1ccc(F)cc1)C(F)(F)F)c1ccccc1	8%	-6%	3%	19%	7%	3.8%	-5%	x
Cc1ccc(C(=O)Nc2ccc3ccccc3c2)cc1	-7%	x	u	u	-8%	x	-16%	u
COc1ccc(Cn2ccnc2)cc1[N+](=O)[O-]	-2%	12%	3%	u	0%	0.9%	2%	-5%
Cc1cccc(N2C(=N)SCC2=O)c1C	-1%	3%	8%	u	6%	0.8%	28%	-6%
CCOc1cc(C(=O)Nn2cnnc2)cc(OCC)c1OCC	x	x	-2%	2%[14.2 µM]	0%	x	1%	-9%
CCC(=O)NC1(Cc2ccc(O)cc2)CCCCC1	8%	x	-6%	0%	-1%	x	20%	6%
Cn1c(-c2ccccc2)c(/C=N/NC(=O)c2ccc(O)cc2)c2ccccc21	-5%	x	x	x	-1%	x	14%	3%
Cc1cc(S(=O)(=O)N2CCOCC2)ccc1OCC(=O)Nc1ccccc1C(F)(F)F	0%	x	x	-8%[46.1 µM]	0%	x	-1%	0%
Cc1c(C(=O)N2CCc3ccccc32)oc2c1C(=O)CC(C)(C)C2	-9%	-25%	-12%	u	-1%	-3.5%	2%	54%
Cc1nn(C)c2c1c(C(F)(F)F)cc(=O)n2C(C)C(=O)NCc1ccc(Cl)cc1 (stereo unspecified)	x	-3%	23%[46.1 µM]	x	x	1.8%	x	-16%
COCC(C)NC(=O)COc1ccc(Cl)cc1Cl (stereo unspecified)	-2%	-2%	0%	-18%	-2%	-0.4%	5%	u
Cc1ccc(CSc2nc3c(c(=O)[nH]2)C(c2ccncc2)C2=C(CCCC2=O)N3)cc1 (stereo unspecified)	2%	13%	0%	u	-1%	-2.4%	-12%	-16%
Cc1c(C(=O)Nc2ccccc2-c2ccccc2)cccc1[N+](=O)[O-]	2%	-2%	-20%	-5%	4%	-4.7%	-16%	-26%
COc1cccc(CNC(=O)C2CCCCN2S(=O)(=O)c2ccc(F)cc2)c1 (stereo unspecified)	x	1%	17%[46.1 µM]	x	x	-0.9%	x	-21%
O=C(CN1C(=O)CCC1=O)Nc1nc(-c2ccc(Oc3ccccc3)cc2)cs1	-2%	u	0%	3%	-13%	-4.7%	-13%	-12%
CCCCNc1nnc(SCC(=O)N2CCN(S(=O)(=O)c3ccc4ccccc4c3)CC2)s1	-1%	u	-2%	u	25%	-7.3%	-13%	u
O=C(OCC(O)CO)c1ccccc1Nc1ccnc2cc(Cl)ccc12 (stereo unspecified)	x	u	x	x	9%	-22%	-6%[18.4 µM]	0%&0%
CCOC(=O)C1(CCc2ccccc2)CCN(Cc2ccco2)CC1	7%	x	1%	u	-1%	x	14%	u
CC(=O)c1nn(-c2cccc(Cl)c2)cc1C(=O)c1ccco1	1%	1%	-10%	-1%[46.1 µM]	5%	3.5%	-3%	-10%
CCN(c1ccccc1)S(=O)(=O)c1ccc(C(=O)Nc2cc(C)ccn2)cc1	x	x	u	-10%	-2%	x	-29%	-24%
CN(C)/C=N/c1nc2nccc(-c3cccc(Cl)c3)n2n1	x	x	4%	-7%[46.1 µM]	4%	x	14%	0%
Cc1noc(C)c1S(=O)(=O)N1CCCC(C(=O)NCC2CCCO2)C1 (stereo unspecified)	-2%	2%	2%	-8%[46.1 µM]	1%	1.0%	-7%	-23%

Compounds were not picked by outcome, and some 4.7% of all compounds hit somewhere here.
